D2 PAM = potentiates the human D2 dopamine receptor allosterically. 360,000 compounds, 0.23% hits. P14416. DiscoveRx D2 beta-arrestin cells, luminescence, 90 min; 100% = 57 uM dopamine signal. potentiation, % (no concentration beside the values); active = potentiation of 50% or more; inconclusive = 30% to 50%; inactive = 30% or less;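 note: compound concentration not given in the record; tested on top of an EC20 dose of dopamine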
Target sequence (P14416 whole entry, looked up): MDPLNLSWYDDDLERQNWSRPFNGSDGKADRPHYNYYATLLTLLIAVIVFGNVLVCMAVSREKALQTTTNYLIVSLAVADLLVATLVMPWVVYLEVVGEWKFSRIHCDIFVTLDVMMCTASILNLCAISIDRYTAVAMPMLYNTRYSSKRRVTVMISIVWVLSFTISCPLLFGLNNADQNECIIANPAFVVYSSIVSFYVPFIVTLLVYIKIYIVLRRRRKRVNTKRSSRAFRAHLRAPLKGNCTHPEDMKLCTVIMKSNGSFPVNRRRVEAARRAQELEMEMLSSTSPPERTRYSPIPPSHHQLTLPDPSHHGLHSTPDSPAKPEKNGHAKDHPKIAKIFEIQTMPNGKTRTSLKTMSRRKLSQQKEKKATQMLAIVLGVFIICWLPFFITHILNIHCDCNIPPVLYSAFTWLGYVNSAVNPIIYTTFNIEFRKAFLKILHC
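D2 cells co-treated with compound plus 50 nM dopamine (EC20) for 90 min at 37 deg C to detect potentiation. Beta-arrestin recruitment was read as enzyme-fragment luminescence after 1 h at ambient temperature. Full response was set by 57 uM dopamine.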
Six1-Eya2 inh = blocks human Six1 binding to Eya2 | Q15475+O00167 | AlphaScreen GST-Six1/His-Eya2 binding, biochemical; stronger effect = lower value; control for the full effect not named in the record | activity change, % (concentration not given with the values) | 360,000 compounds, 0.56% hits; in the data active = activity change below about -65%; inconclusive = about -30% to -65%; inactive = above about -30%; note: % is set by controls: 0 for no effect and ±100 for the full control effect
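GST-Six1 + His-Eya2 (5X stock: 250/500 nM); Tris pH 8.0, 300 mM NaCl, 0.05% BSA, 0.02% Tween 20; GSH donor/Ni acceptor beads; 1 h 37 °C dark; AlphaScreen readout.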
CtBP-E1A blk = inhibitors of CtBP/E1A interaction | AlphaScreen GST-E1A/His-CtBP binding, 1536-well; stronger effect = lower value; control for the full effect not named in the record | activity change, % (test concentration not listed) | 340,000 compounds, 0.49% hits; in the data active means activity change below about -65%; inconclusive means about -30% to -65%; inactive means above about -30%; note: % is set by controls: 0 for no effect and ±100 for the full control effect
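AlphaScreen with 125 nM GST-E1A and 125 nM His-CtBP (5X stocks) in Tris pH 8.0, 300 mM NaCl, BSA, Tween 20, TCEP. Compounds preincubated 2 h at 37 deg C, then glutathione donor/nickel acceptor beads added for 1 h at 37 deg C in dark.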
TRPML1 ag = agonists of human TRPML1 channel. Q9GZU1. TRPML1-expressing cells, Ca2+ dye fluorescence, FDSS; host cell line not named in the record; reference of the full effect not given here. activation, % (no concentration beside the values). 410,000 compounds, 0.12% hits. AID 624414; in the data active = activation above about 50%; inconclusive = about 30% to 50%; inactive = below about 30%; note: 0% is about no effect; the text of the record puts the active cut at 80%
Target sequence (Q9GZU1 whole entry, looked up): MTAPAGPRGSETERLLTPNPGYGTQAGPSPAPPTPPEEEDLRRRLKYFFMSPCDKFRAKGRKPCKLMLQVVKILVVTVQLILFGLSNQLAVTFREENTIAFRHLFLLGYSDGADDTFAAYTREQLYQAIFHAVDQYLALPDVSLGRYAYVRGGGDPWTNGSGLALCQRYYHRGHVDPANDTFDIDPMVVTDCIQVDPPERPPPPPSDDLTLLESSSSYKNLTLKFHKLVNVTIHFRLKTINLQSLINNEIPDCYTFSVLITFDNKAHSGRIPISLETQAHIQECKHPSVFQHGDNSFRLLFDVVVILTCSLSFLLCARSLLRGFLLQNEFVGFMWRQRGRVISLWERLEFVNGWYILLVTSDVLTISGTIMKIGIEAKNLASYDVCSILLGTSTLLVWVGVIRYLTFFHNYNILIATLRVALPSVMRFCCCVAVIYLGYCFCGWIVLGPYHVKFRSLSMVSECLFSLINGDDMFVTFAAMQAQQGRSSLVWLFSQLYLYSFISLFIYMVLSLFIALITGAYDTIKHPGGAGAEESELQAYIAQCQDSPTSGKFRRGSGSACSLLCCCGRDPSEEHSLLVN
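TRPML1-DL cells, Tet-induced overnight (~16 h, 37 degrees C), loaded 45-90 min at room temperature with Ca8 no-wash calcium dye plus quencher. FDSS fluorescence: 10 s baseline, compound pin-transfer, 110 s agonist read, then EC80 54-4 (4uM final) and 110 s antagonist read.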
PINK1 modulator = modulators of PINK1 expression; PINK1 immunofluorescence, high-content cytometry, 24 h; Potency, µM (highest dose often 76.6 µM), inactives show at the highest dose activation (PINK1 increase), actives largely listed as activators; 410,000 compounds, 0.2% hits; AID 624263; active = well fitted activation curve with a large enough effect; inconclusive = small, poorly fitted or top-dose-only effect; inactive = flat fitted curve, though single readings scatter; cell line not stated here;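 note: potency is the fitted concentration of half-maximal effect; % of control where 0% means no effect; nearly all actives have a fitted effect of over 65% in size; a mitochondrial uncoupler was the plate control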
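Readout is PINK1 immunofluorescence, quantified alongside mitochondrial, cell and nuclear markers by laser-scanning microplate cytometry. Cells from a stable line were exposed to compound titrations (5 concentrations) for 24 hours, with CCCP controls.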
D2 agonist = activates the human D2 dopamine receptor. P14416. activation, % (test concentration not listed). AID 624465. 360,000 compounds, 0.084% hits. DiscoveRx PathHunter D2 beta-arrestin, luminescence, 90 min; 100% = 57 uM dopamine signal; in the data active = activation above about 40%; inconclusive = about 15% to 40%; inactive = below about 15%; note: compound concentration not given in the record; the text of the record calls up to 30% inactive
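DiscoveRx PathHunter D2 beta-arrestin cells (2,100/well) attached overnight, then compound-stimulated 90 min at 37 C in HBSS/10 mM HEPES/0.1% Tween-20 buffer; beta-galactosidase complementation read by luminescence after 1 h at ambient temperature. Dopamine 57 uM final (EC100) as control.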
The depositor's hits bear a star; ? = inconclusive; [ ] = another dose, or the depositor's remark.

SMILES	D2 PAM	Six1-Eya2 inh	CtBP-E1A blk	TRPML1 ag	PINK1 modulator	D2 agonist
Cc1ccc(C)c(S(=O)(=O)Nc2cc(C)on2)c1	-7	-25	-10	0.6	0.1%	-1.8
Cc1cc(C)cc(N2CN=C3SCC(=O)N3C2)c1	-15	7	7	-1.3	1.9%	-9.2
COc1ccc(C(=O)NC2CCCc3c2cnn3-c2cccc(C)c2C)c(OC)n1 (stereo unspecified)	17	-15	-6	1.9	5.3%	-0.3
CCN(Cc1ccccc1)C(=O)CCNS(=O)(=O)c1cc(Br)cnc1N	-6	0	1	-0.6	-0.3%	-2.6
Cc1ccccc1Nc1nc(N)nc(-c2oc3ccccc3c2C)n1	1	-2	-2	1.4	-1.8%	2.8
Cn1nc(C(=O)NNC(=O)c2ccccc2Br)c2ccccc2c1=O	11	6	-1	0.0	-1.7%	-0.9
CCOc1ccc(NC(=S)Nc2ccc(OC(F)(F)F)cc2)cc1	-5	7	5	3.9	0.1%	-0.6
COc1cccc(N2CCN(c3ncnc4c3[nH]c3ccc(F)cc34)CC2C)c1 (stereo unspecified)	52*	?	-27	-1.5	-3.6%	10.0
COc1cccc(NS(=O)(=O)c2ccc3[nH]cc(C(=O)NCCN4CCOCC4)c(=O)c3c2)c1	9	0	1	-0.2	0.5%	3.4
O=C(CS(=O)(=O)c1ccc(F)cc1)Nc1nnc(-c2ccccc2Cl)o1	5	-8	5	0.7	0.1%	2.9
CN1CCN(c2ccc(C(CC(N)=O)NC(=O)Cc3cccc4ccccc34)cc2[N+](=O)[O-])CC1 (stereo unspecified)	-14	-2	4	0.4	0.1%	-3.7
Cc1ccc(C(C)NC(=O)c2cccnc2)cc1 (stereo unspecified)	0	-6	6	1.1	-0.1%	3.5
Cn1cc(-c2cnc3c(NC=O)cc(-c4cccc(C(F)(F)F)c4)cn23)cn1	-4	-15	-4	-0.7	-0.9%	-6.2
Cn1c(=O)c2c(nc(N3CCCCCC3)n2CC(O)COc2ccccc2)n(C)c1=O (stereo unspecified)	-2	-2	3	-1.3	-1.2%	-1.9
NS(=O)(=O)c1ccc(CNC(=S)Nc2ccc(F)c(Cl)c2)cc1	-1	-3	-1	0.9	0.2%	4.4
CC(Sc1ccccc1)C(=O)N1CCN(S(=O)(=O)c2ccccc2)CC1 (stereo unspecified)	-23	3	-1	-0.4	-0.3%	5.1
Cc1ccc(NC(=O)COC(=O)c2ccc(-n3cnnn3)cc2)c(Br)c1	-1	9	2	0.8	8.1%	-0.3
C=CCNC(=S)Nc1ccc2cn[nH]c2c1	-3	5	0	0.6	-1.1%	3.8
Cc1ccc2nc(C)cc(C(=O)N3CCCC(CO)(Cc4ccccc4C)C3)c2c1 (stereo unspecified)	0	-6	-2	-0.1	1.4%	-1.6
O=c1c2sccc2[nH]c(=S)n1-c1ccccc1	-3	-1	-2	0.4	3.5%	-4.8

An excerpt from above in order of SMILES length, low to high:
SMILES	D2 PAM	Six1-Eya2 inh	CtBP-E1A blk	TRPML1 ag	PINK1 modulator	D2 agonist
Cc1cc(C)cc(N2CN=C3SCC(=O)N3C2)c1	-15	7	7	-1.3	1.9%	-9.2
Cn1nc(C(=O)NNC(=O)c2ccccc2Br)c2ccccc2c1=O	11	6	-1	0.0	-1.7%	-0.9
CCN(Cc1ccccc1)C(=O)CCNS(=O)(=O)c1cc(Br)cnc1N	-6	0	1	-0.6	-0.3%	-2.6
Cc1ccc(NC(=O)COC(=O)c2ccc(-n3cnnn3)cc2)c(Br)c1	-1	9	2	0.8	8.1%	-0.3
CN1CCN(c2ccc(C(CC(N)=O)NC(=O)Cc3cccc4ccccc34)cc2[N+](=O)[O-])CC1 (stereo unspecified)	-14	-2	4	0.4	0.1%	-3.7

(next part)
SMILES	D2 PAM	Six1-Eya2 inh	CtBP-E1A blk	TRPML1 ag	PINK1 modulator	D2 agonist
COc1ccc(N/C=C(\C#N)c2ccc(OCCCF)cc2)cc1	-4	-26	-9	1.9	2.1%	6.5
CC1CC(Nc2ccccc2)c2ccccc2N1C(=O)c1cccnc1 (stereo unspecified)	0	-12	-6	0.6	3.9%[38.3 µM]	0.3
COc1ccc(N2CCN(C(=O)Cc3nn(C)c(=O)c4ccccc34)CC2)cc1	-3	-8	2	0.0	1.5%	2.7
c1ccc2c(-n3cccn3)cccc2c1	15	8	9	-0.6	-0.2%	-1.6
CCOc1ccc2nc(NC(=O)CN3CCC(n4nnc5cc(F)ccc54)CC3)sc2c1	-13	-25	-22	5.3	-0.7%	0.9
Cc1ccc(C)c(NC(=O)COC(=O)c2cc3ccccc3oc2=O)c1	0	2	0	3.0	0.9%	7.8
CCOc1c(Cl)cc(CNc2ccc(S(N)(=O)=O)cc2)cc1OC	-12	9	-1	2.1	-0.9%	-1.7
CCc1nc2c(OCCOc3ccccc3)cccn2c1N(C)C(=O)C1CC1	-5	5	1	-0.9	0.7%	-2.1
C/C(=N\NC(=O)c1c([N+](=O)[O-])c(C)nn1C)c1ccc(NC(=O)C2CCCC2)cc1	-14	-1	-4	0.5	5.1%	0.1
N#Cc1ccc(CN2CCN(CC(=O)NCCc3ccc(Cl)cc3Cl)CC2)cc1	-3	5	24	1.3	4.5%	2.3
Cc1ccc(NC(=O)CSCC(=O)N2CCOCC2)cc1	-16	1	6	-0.7	5.3%[38.3 µM]	-2.6
CCC(=O)N1CCN(c2nc(-c3ccc(Cl)cc3)cs2)CC1	-8	-14	-11	0.4	4.2%	-2.0
CCc1ccc(NC(=O)COc2coc(CN3CCN(c4ccccc4)CC3)cc2=O)cc1	5	2	-19	2.1	15%	-3.3
COc1ccc(-n2ccnc2SCC(=O)Nc2ccccc2)cc1	0	-5	3	-0.7	-1.2%	-2.5
O=C1CN(C(=O)c2cc3ccccc3oc2=O)C(c2ccc(F)cc2)c2cc(F)ccc2N1 (stereo unspecified)	0	-3	-1	0.5	2.4%	1.2
COc1ccc(OC)c(NC(=O)CSc2n[nH]c(-c3cccnc3)n2)c1	-6	0	-11	0.4	2.9%	3.7
CCOCC(=O)Nc1ccc([N+](=O)[O-])cc1C	3	8	0	-0.8	-0.3%	-2.1
COc1ccccc1N1CCN(S(=O)(=O)Cc2ccccc2Cl)CC1	-14	-1	2	0.6	-2.2%[38.3 µM]	1.2
CCOn1c(=O)c(-c2cc3ccccc3o2)[n+]([O-])c2ccccc21	-1	8	6	0.0	2.4%	0.4
O=C(NC(=S)N1CCN(Cc2ccc3c(c2)OCO3)CC1)c1cccc(Br)c1	-20	?	-4	-0.4	6.8%	-4.3
ClC(Cl)(Cl)c1nc2ccccc2n2nncc12	?	0	-2	2.5	-1.7%	?
CN(C)C1NC(=O)c2cc(-c3ccccc3)sc2N1 (stereo unspecified)	-35	-8	9	0.2	-0.4%	-0.3
Cc1cc(Cn2nnc(-c3ccc(Br)cc3)n2)cc(C)c1O	0	-2	11	-0.6	0.3%	1.8
CCCCSc1nc2c([nH]1)c(=O)n(C)c(=S)n2C	-17	2	-3	0.7	0.1%	-2.2
CC1CN(CC(=O)Nc2cccc(C(=O)Nc3cccc(C(F)(F)F)c3)c2)CC(C)O1 (stereo unspecified)	-7	0	-3	-0.5	1.1%	-1.5
O=C(Cn1cc(C(F)(F)F)ccc1=O)Nc1cc(S(=O)(=O)N2CCOCC2)ccc1Cl	-10	-6	-8	-1.1	0.4%	-2.4
COC(=O)C1=C(C)N(Cc2ccccc2)C(=NCC(C)C)N[C@H]1c1ccccc1	-9	8	-2	7.9	?	-0.3
Cc1cc(Nc2cccc(F)c2)n2nc(C)nc2n1	0	-2	0	0.4	1.5%	2.6
CCN(C(=O)CCc1nc(-c2ccc(OC)cc2)no1)c1cc(OC)ccc1OC	-24	1	7	3.4	0.6%	3.5
Oc1ccc(/C=N/NC2=NCCCCC2)cc1	-4	2	5	0.3	-2.4%[38.3 µM]	-3.0
Cc1cccc(NC2=NC(=S)N(CC#N)C23CCCCC3)c1	-12	-5	-1	-1.1	-0.9%	-2.5
CC(C)(C)n1ncc2c(=O)n(CC(=O)NC3CCCCC3)cnc21	-10	0	7	-0.5	2.1%	-1.6
CCOC(=O)c1ccc(NC(=O)CN2C(=O)CSCC2=O)cc1	0	2	0	0.5	3.3%	-2.1
CN(Cc1ccccc1)C(=O)CSc1nc2c(c(C(F)(F)F)n1)CCc1ccccc1-2	-10	-2	0	2.4	-4.6%	-3.8
c1coc(-c2cc(C3CCNCC3)[nH]n2)c1	-11	-20	-21	0.4	1.6%	-1.0
CCCN(C(=O)CCSc1ccc(F)cc1)c1c(N)n(Cc2ccccc2)c(=O)[nH]c1=O	9	3	7	0.1	31%	-0.6
CC1CN(C(=O)c2ccc(-c3cccc(C(F)(F)F)c3)o2)CC(C)O1 (stereo unspecified)	-31	3	-24	2.0	-0.6%	0.4
CCOc1cccc2sc(N(CCN(CC)CC)C(=O)c3cccc(N4C(=O)CCC4=O)c3)nc12	-31	-1	-11	1.1	-5.4%	-1.0
CC(=O)Nc1cccc(NC(=O)Nc2ccc(F)cc2F)c1	-2	15	0	-0.3	0.1%	-5.6
Cc1ccc2cc(CCNS(=O)(=O)c3ccc(Br)cc3)c(=O)[nH]c2c1C	-8	-10	-7	-0.4	-3.5%	-17
O=C(Nc1cccnc1)c1c(F)cccc1F	-10	0	-1	0.3	-1.5%[38.3 µM]	-0.8
O=C(Nc1ccccc1C(=O)N/N=C/c1ccco1)c1ccccc1Cl	-19	0	7	-0.2	0.2%	-4.7
COc1ccc(S(=O)(=O)N2CCCC(C(=O)NC3CCCC3)C2)cc1OC (stereo unspecified)	-6	-4	-2	-0.1	7.2%	1.0
CCN(CC)S(=O)(=O)c1cccc(-c2nnc(SCC(=O)NC3CCCC3)n2N)c1	3	3	5	-0.3	?	-2.3
CCOC(=O)c1nc(C)n(-c2ccc(Cl)cc2)n1	2	0	-3	-0.1	1.4%	0.8
Cc1nc2ccccc2c(=O)n1N(c1ccccc1)c1ccccc1	5	-4	4	1.8	2.5%	-0.2
Cc1cc(C)cc(NC(=O)C2CCN(C(=O)[C@@H]3Cc4ccccc4CN3)CC2)c1	-22	-1	-4	4.1	-0.4%	-4.1
O=Cc1c(Cl)[nH]c(=O)n1-c1ccccc1	-8	6	-3	-0.9	-0.4%	-2.4
O=C(Nc1cccc(O)c1)c1cccc(S(=O)(=O)Nc2cccc(O)c2)c1	-2	-10	-8	0.2	-1.0%	-2.8
COc1ccc(NC(=O)c2ccccc2NS(=O)(=O)c2ccc(CNC(C)=O)cc2)c(OC)c1	-4	-23	-29	0.2	6.1%	-1.6
c1ccc(-c2nc(NCc3cccnc3)c3oc4ccccc4c3n2)cc1	11	-24	-27	2.5	-0.1%	-2.6
COc1ccc(CNC(=O)C2CCN(C(=O)[C@@H]3Cc4ccccc4CN3)CC2)cc1	-6	4	-8	0.4	-1.0%	8.9
O=C(NC1CCCC1)C(c1ccncc1)N(C(=O)c1ccco1)c1ccccc1 (stereo unspecified)	6	2	1	2.3	-1.1%	6.5

Source: PubChem (National Center for Advancing Translational Sciences (NCATS))

Hits appear at their usual frequency; overall some 1.3% were active at least once.
